B2AR ag = agonists of human beta-2 adrenergic receptor inducing internalization. AID 504454. Am2.2-beta2AR cells, FAP receptor internalization, flow cytometry; reference of the scale not given here. response, % (no concentration beside the values). actives 0.43% (n = 340,000). P07550;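 active = response above a set limit, near 3 SD of response in nonfluorescent compounds, cut at about 42% in these data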;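 note: stock transfer was 100 nL into about 11 µL; a reference agonist was the positive control; negative values mostly stem from fluorescent compounds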
Target sequence (P07550 whole entry, looked up): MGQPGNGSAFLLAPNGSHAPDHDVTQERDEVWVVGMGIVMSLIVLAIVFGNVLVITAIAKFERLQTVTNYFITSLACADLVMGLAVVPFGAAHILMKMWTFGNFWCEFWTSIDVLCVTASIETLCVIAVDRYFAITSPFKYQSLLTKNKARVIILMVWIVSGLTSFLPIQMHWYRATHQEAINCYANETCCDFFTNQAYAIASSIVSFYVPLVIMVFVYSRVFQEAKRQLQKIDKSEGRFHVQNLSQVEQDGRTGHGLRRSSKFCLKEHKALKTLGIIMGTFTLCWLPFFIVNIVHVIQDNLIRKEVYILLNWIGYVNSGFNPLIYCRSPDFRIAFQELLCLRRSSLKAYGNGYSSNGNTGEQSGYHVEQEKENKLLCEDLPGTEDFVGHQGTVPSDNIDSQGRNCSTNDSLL
rRNA inh HTS = inhibitors of bacterial rRNA selective over humanized ribosomes | E. coli WT GFP vs humanized-ribosome RFP mutants, fluorescence, 24 h; hits give low values; DMSO median 0, no signal -100 | GFP signal change (wild-type ribosome), % (concentration not given with the values) | actives 1.6% (n = 350,000) | AID 720706;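 active = significant combined selectivity score with lowered wild-type GFP, culture density cut under 30%, mutant RFP and density less affected; inactive = any of these conditions unmet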; note: one replicate is shown; some compounds called inactive have numbers as strong as hits
HNF4A DNA FP = change in binding of human HNF4 alpha to DNA. activity change, % at 10 µM. HNF4a-FITC DNA binding, fluorescence polarization, 1 h. actives 0.3% (n = 360,000). P41235. AID 1224865; in the data active = activity change above about 30%, passing the limit was not always enough;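 note: controls were the assay level and a saturating level of protein; the project sought stronger binding though the title names inhibitors; some compounds called inactive have numbers as strong as hits; positive values seem to mean higher polarization but the record does not say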
UCH37 DUB inh = blocks the human deubiquitinase UCH37; Q9Y5K5; inhibition, % (concentration not given with the values); actives 0.33% (n = 330,000); purified proteasome/UCH37, Ub-AMC cleavage fluorescence; AID 588478;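 active = mean of two replicates above 20%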;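 note: 0% = compound-free wells with enzyme and 100% = wells lacking proteasome; stock transfer was 100 nL into about 20 µL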
Target sequence (Q9Y5K5 whole entry, looked up): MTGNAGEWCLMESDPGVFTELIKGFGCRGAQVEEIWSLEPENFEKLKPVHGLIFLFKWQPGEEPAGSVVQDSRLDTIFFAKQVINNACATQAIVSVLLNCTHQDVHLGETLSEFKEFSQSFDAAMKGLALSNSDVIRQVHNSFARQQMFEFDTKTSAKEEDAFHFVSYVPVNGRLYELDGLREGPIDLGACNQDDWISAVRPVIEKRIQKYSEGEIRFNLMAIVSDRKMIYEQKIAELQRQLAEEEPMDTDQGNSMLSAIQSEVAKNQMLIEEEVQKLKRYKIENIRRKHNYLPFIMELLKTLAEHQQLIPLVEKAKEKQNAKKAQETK
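Material: Human UCH37 enzyme supplied as purified proteasome complex | Schedule: 30 min preincubation with enzyme, 25 min cleavage at room temperature | Detection: AMC fluorescence 355/460 nm | Measure: % inhibition of Ub-AMC cleavage fluorescence | Controls: Wells without proteasome as full block, compound-free enzyme plus substrate as uninhibited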
ALR inh = inhibitors of human sulfhydryl oxidase ALR | purified ALR, DTT oxidation, H2O2 HRP-luminol luminescence | inhibition, % (no concentration beside the values) | actives 3.8% (n = 290,000);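 active = mean and each replicate at 75% or more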;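 note: stock transfer was 7.5 nL into about 7.5 µL; 0% = neutral wells and 100% = wells with inactivated enzyme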
Target sequence (P55789 whole entry, looked up): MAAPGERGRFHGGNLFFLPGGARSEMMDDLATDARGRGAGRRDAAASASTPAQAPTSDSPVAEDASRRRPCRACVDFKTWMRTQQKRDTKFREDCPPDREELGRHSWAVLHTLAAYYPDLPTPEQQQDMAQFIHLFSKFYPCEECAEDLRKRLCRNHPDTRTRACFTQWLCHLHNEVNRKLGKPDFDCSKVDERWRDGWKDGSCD
FGF22 binding = binders of recombinant human FGF22 by thermal shift; Q9HCT0; SYPRO orange fluorescence; percent of sucrose octasulfate shift, DMSO zero; calls only at 9.99 µM; actives 1.5% (n = 340,000);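 active = melting point raised past a set limit in the mean and every replicate; three in four hits are not shown here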
Ecoli growth = E. coli growth inhibition | Escherichia coli growth, OD600, 23 h; hits give low values | OD600 absorbance (concentration not given with the values) | actives 0.21% (n = 330,000) | AID 1053175;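 active = OD600 absorbance below the run mean of sample wells minus 3.6 SD, in any replicate, cut at about 0.56 in these data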;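 note: stock transfer was 300 nL into about 60 µL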
rRNA inh HTS OD600 = recorded beside rRNA inh HTS, whose call it bears; OD600 change, %; measured here: OD600 growth;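 optical density of the mix in the first replicate; 0 = DMSO median and -100 = no signal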
rRNA inh HTS RFP = second read-out of rRNA inh HTS, no call of its own (marks repeat the call); RFP signal change, %; measured here: RFP humanized mutant strains;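 first replicate; 0 = DMSO median and -100 = no signal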
Starred values were filed as active, the others as inactive; & = joins results of further samples; ! = not active in a repeat.

`CCc1ccc(CN2CCC(n3nccc3NC(=O)C3CCCC3)CC2)cc1` gave B2AR ag 7, rRNA inh HTS 4, HNF4A DNA FP 2.4, UCH37 DUB inh 3.0, ALR inh -7, FGF22 binding inactive, Ecoli growth 0.63, rRNA inh HTS OD600 6 and rRNA inh HTS RFP -1.1.
Screening CCCCC[n+]1ccn(C2=C([O-])c3ccccc3C(=O)/C2=N\S(=O)(=O)c2ccc(Cl)cc2)c1 returned B2AR ag 6, rRNA inh HTS 6, HNF4A DNA FP 3.2, ALR inh -19, FGF22 binding inactive, rRNA inh HTS OD600 4 and rRNA inh HTS RFP 3.0.
`O=S(=O)(Nc1ncccn1)c1ccc(NC(=S)NCCc2ccccc2)cc1` gave B2AR ag 6, rRNA inh HTS -11, HNF4A DNA FP 2.1, UCH37 DUB inh 4.0, ALR inh -1, FGF22 binding inactive, Ecoli growth 0.68, rRNA inh HTS OD600 -2 and rRNA inh HTS RFP 0.2.
`CCOC(=O)N1CCC(Nc2c(NCCCOC)c(=O)c2=O)CC1` gave B2AR ag 3, HNF4A DNA FP -1.8, UCH37 DUB inh 4.8, ALR inh -12 and Ecoli growth 0.67.
`CC(CC(=O)Nc1cccc(Cl)c1)c1ccccc1` (stereo not drawn) gave B2AR ag 14, HNF4A DNA FP -4.1, UCH37 DUB inh -1.4, ALR inh 0 and Ecoli growth 0.66.
`CN(c1ccc(OCC(=O)Nc2cc(Cl)ccc2C(=O)O)cc1)S(=O)(=O)c1ccc(F)cc1` gave B2AR ag 8, HNF4A DNA FP -6.6, UCH37 DUB inh 1.3, ALR inh 33, FGF22 binding inactive and Ecoli growth 0.63.
Cc1ccnc(NS(=O)(=O)c2ccc(NC(=O)c3snnc3C)cc2)n1 was read as B2AR ag -3, rRNA inh HTS -21, HNF4A DNA FP -3.2, UCH37 DUB inh 3.6, ALR inh -2, FGF22 binding inactive, Ecoli growth 0.66, rRNA inh HTS OD600 -35 and rRNA inh HTS RFP -8.3.
For COc1cccc(CNC(=O)CN(c2ccc(C(C)C)cc2)S(=O)(=O)c2c(C)noc2C)c1 the results were B2AR ag 5, rRNA inh HTS -2, HNF4A DNA FP 0.6, UCH37 DUB inh 2.5, ALR inh -36, FGF22 binding inactive, Ecoli growth 0.72, rRNA inh HTS OD600 -2 and rRNA inh HTS RFP 0.3.
For CC(=O)Nc1c2c(nn1-c1ccccc1C)CSC2 the results were B2AR ag -1, rRNA inh HTS 4, HNF4A DNA FP -1.1, UCH37 DUB inh -1.1, ALR inh -2, FGF22 binding inactive, Ecoli growth 0.71, rRNA inh HTS OD600 13 and rRNA inh HTS RFP -1.4.
O=S(=O)(c1ccccc1S(=O)(=O)N1CCCCC1)N1CCCCC1 was read as B2AR ag 7, rRNA inh HTS -5, HNF4A DNA FP 0.9, UCH37 DUB inh -0.4, ALR inh -3, FGF22 binding inactive, Ecoli growth 0.72, rRNA inh HTS OD600 -13 and rRNA inh HTS RFP -3.8.
`O=C(c1ccc(S(=O)(=O)Nc2ccccc2F)cc1)N1CCCC1` gave B2AR ag 5, rRNA inh HTS 1, HNF4A DNA FP 2.4, UCH37 DUB inh -0.6, FGF22 binding inactive, Ecoli growth 0.71, rRNA inh HTS OD600 4 and rRNA inh HTS RFP -0.8.
`CCc1ccc(OCc2nnc(SCC(=O)NCC3CCCO3)n2C)cc1` (stereo not drawn) gave B2AR ag -7, rRNA inh HTS 7, HNF4A DNA FP -1.3, UCH37 DUB inh -1.1, ALR inh 12, FGF22 binding inactive, Ecoli growth 0.63, rRNA inh HTS OD600 5 and rRNA inh HTS RFP 2.1.
Screening CCCCCCCCCNC(=O)[C@H](NC(=O)COc1ccccc1)[C@@H]1NC(C(=O)OC)C(C)(C)S1 (stereo partly drawn) returned B2AR ag -4, HNF4A DNA FP -2.2, UCH37 DUB inh 2.5 and ALR inh -7.
Screening Cc1ccc(-c2nc3ccccc3[nH]2)cc1NC(=O)c1sc2cc(Cl)ccc2c1Cl returned B2AR ag 0, HNF4A DNA FP 15, UCH37 DUB inh -10 and Ecoli growth 0.73.
For O=C(NCc1ccccc1F)c1ccc2ccccc2n1 the results were B2AR ag 1, rRNA inh HTS -6, HNF4A DNA FP -4.5, UCH37 DUB inh 1.7, ALR inh -1, FGF22 binding inactive, Ecoli growth 0.68, rRNA inh HTS OD600 -7 and rRNA inh HTS RFP 1.3.
For O=C(Nc1ccc(F)cc1)C1CCN(S(=O)(=O)c2cccc3nonc23)CC1 the results were B2AR ag 11, rRNA inh HTS 2, HNF4A DNA FP 3.6, UCH37 DUB inh 1.2, ALR inh -3, FGF22 binding inactive, Ecoli growth 0.69, rRNA inh HTS OD600 9 and rRNA inh HTS RFP -3.1.
Screening Cc1cccc(NC(=O)C(CCC(N)=O)NC(=O)OCc2ccccc2)c1 (stereo not drawn) returned B2AR ag -6, rRNA inh HTS 1, HNF4A DNA FP -0.3, UCH37 DUB inh 3.2, ALR inh -4, FGF22 binding inactive, Ecoli growth 0.69, rRNA inh HTS OD600 -4 and rRNA inh HTS RFP -0.6.
`Cc1noc(C)c1C(=O)N1CCN(c2cccc(Cl)c2)CC1` gave B2AR ag -1, rRNA inh HTS 9, HNF4A DNA FP 2.1, UCH37 DUB inh 6.0, ALR inh 29, FGF22 binding inactive, Ecoli growth 0.69, rRNA inh HTS OD600 8 and rRNA inh HTS RFP -0.6.
Screening OC(c1ccccc1)c1nc2ccccc2s1 (stereo not drawn) returned B2AR ag 5, HNF4A DNA FP 1.9, UCH37 DUB inh 0.4 and Ecoli growth 0.72.
`COc1ccc(S(=O)(=O)N2CCOCC2)cc1C(=O)NCC(c1ccco1)N1CCCC1` (stereo not drawn) gave B2AR ag -5, rRNA inh HTS 11, HNF4A DNA FP -1.3, UCH37 DUB inh 1.3, ALR inh -7, FGF22 binding inactive, Ecoli growth 0.63, rRNA inh HTS OD600 5 and rRNA inh HTS RFP -1.2.

Part of the list above in order of length of the SMILES, rising:
Screening OC(c1ccccc1)c1nc2ccccc2s1 (stereo not drawn) returned B2AR ag 5, HNF4A DNA FP 1.9, UCH37 DUB inh 0.4 and Ecoli growth 0.72.
Screening Cc1cccc(NC(=O)C(CCC(N)=O)NC(=O)OCc2ccccc2)c1 (stereo not drawn) returned B2AR ag -6, rRNA inh HTS 1, HNF4A DNA FP -0.3, UCH37 DUB inh 3.2, ALR inh -4, FGF22 binding inactive, Ecoli growth 0.69, rRNA inh HTS OD600 -4 and rRNA inh HTS RFP -0.6.
Screening CCCCCCCCCNC(=O)[C@H](NC(=O)COc1ccccc1)[C@@H]1NC(C(=O)OC)C(C)(C)S1 (stereo partly drawn) returned B2AR ag -4, HNF4A DNA FP -2.2, UCH37 DUB inh 2.5 and ALR inh -7.

The main list resumes, starting 2 compounds before the break.
Screening OC(c1ccccc1)c1nc2ccccc2s1 (stereo not drawn) returned B2AR ag 5, HNF4A DNA FP 1.9, UCH37 DUB inh 0.4 and Ecoli growth 0.72.
`COc1ccc(S(=O)(=O)N2CCOCC2)cc1C(=O)NCC(c1ccco1)N1CCCC1` (stereo not drawn) gave B2AR ag -5, rRNA inh HTS 11, HNF4A DNA FP -1.3, UCH37 DUB inh 1.3, ALR inh -7, FGF22 binding inactive, Ecoli growth 0.63, rRNA inh HTS OD600 5 and rRNA inh HTS RFP -1.2.
`C#CCOCCOCCOCCNc1nc(N2CCOCC2)nc(N2CCN(C(=O)Cn3cc(CCCCN)nn3)CC2)n1` gave B2AR ag -8, rRNA inh HTS -1, HNF4A DNA FP -1.5, UCH37 DUB inh 1.4, FGF22 binding inactive, Ecoli growth 0.64, rRNA inh HTS OD600 3 and rRNA inh HTS RFP 7.8.
Screening CC(C)N(C(=O)c1sc2cc([N+](=O)[O-])ccc2c1Cl)C(C)C returned B2AR ag -9, HNF4A DNA FP 0.8, UCH37 DUB inh 1.1, ALR inh -26 and Ecoli growth 0.67.
For COc1ccc(CCn2c(=S)[nH]c3cc(C(=O)NCc4ccco4)ccc3c2=O)cc1OC the results were B2AR ag 8, HNF4A DNA FP 3.8, UCH37 DUB inh 2.9, ALR inh -4 and Ecoli growth 0.71.
Screening COC(=O)N1C(=O)[C@](c2ccc(Cl)cc2)(C(C)C)N1C(=O)OC returned B2AR ag 13, rRNA inh HTS 10, HNF4A DNA FP 0.8, UCH37 DUB inh 5.8, ALR inh 9, FGF22 binding inactive, Ecoli growth 0.77, rRNA inh HTS OD600 0 and rRNA inh HTS RFP -2.4.
`COc1cc(C(=O)Nc2ccc(S(=O)(=O)Nc3nccc(C)n3)cc2)cc(OC)c1OC` gave B2AR ag 2, HNF4A DNA FP -3.2, UCH37 DUB inh 2.3, ALR inh -3 and Ecoli growth 0.66.
Cc1ccccc1S(=O)(=O)N1C[C@H]2CON(C)[C@H]2C[C@H]1c1cccc(N2CCOCC2)c1 was read as B2AR ag 9, rRNA inh HTS -3, HNF4A DNA FP -2.6, FGF22 binding inactive, rRNA inh HTS OD600 2 and rRNA inh HTS RFP 0.6.
Screening O=C(CCc1nc(-c2ccccc2)no1)NC1CCCCCC1 returned B2AR ag 5, rRNA inh HTS 3, HNF4A DNA FP 3.2, UCH37 DUB inh -0.8, FGF22 binding inactive, Ecoli growth 0.7, rRNA inh HTS OD600 2 and rRNA inh HTS RFP -0.7.
`Oc1c(C=C2N=c3ccccc3=N2)sc(=S)n1-c1ccc(F)cc1` gave B2AR ag -2&8, HNF4A DNA FP 39*!, UCH37 DUB inh 4.5, ALR inh 0 and Ecoli growth 0.69.
Screening CCOC(=O)c1ccc(NC(=O)CSc2nnc(C3CCCCC3)n2C)cc1 returned B2AR ag -4, HNF4A DNA FP -5.3, UCH37 DUB inh 4.2 and Ecoli growth 0.69.
`Cc1cc(-c2n[nH]c(=S)n2/N=C/C=C/c2ccco2)n[nH]1` gave B2AR ag -9, HNF4A DNA FP -1.7, ALR inh -10 and FGF22 binding inactive.
Cc1ccc(CN(C(=O)COc2ccc(C)c(C)c2)C2CCS(=O)(=O)C2)o1 (stereo not drawn) was read as B2AR ag -1, rRNA inh HTS -4, HNF4A DNA FP -3.8, UCH37 DUB inh -1.3, ALR inh 3, FGF22 binding inactive, Ecoli growth 0.7, rRNA inh HTS OD600 -9 and rRNA inh HTS RFP -0.6.
For COc1ccc(CCN=CC2=C(O)CC(C)(C)CC2=O)cc1 the results were B2AR ag 6, HNF4A DNA FP 0.6, UCH37 DUB inh 2.6, ALR inh 10 and Ecoli growth 0.72.
CC(C)NC(=S)N1CCN(c2ncccn2)CC1 was read as B2AR ag 2, rRNA inh HTS 8, HNF4A DNA FP -2.5, UCH37 DUB inh -1.0, ALR inh -1, FGF22 binding inactive, Ecoli growth 0.71, rRNA inh HTS OD600 14 and rRNA inh HTS RFP 4.5.
O=C1OC(c2ccc(F)cc2)=C/C1=C\c1ccc(O)cc1 was read as B2AR ag 6, rRNA inh HTS 2, HNF4A DNA FP -2.3, UCH37 DUB inh 6.6, ALR inh 23, FGF22 binding inactive, Ecoli growth 0.66, rRNA inh HTS OD600 9 and rRNA inh HTS RFP -0.8.
`COc1cc(/C=C/C(=O)OCC(=O)Nc2c(C)n(C)n(-c3ccccc3)c2=O)ccc1O` gave B2AR ag -7, HNF4A DNA FP -3.8, UCH37 DUB inh -23, ALR inh 99*, FGF22 binding inactive and Ecoli growth 0.75.
`COCCNC(=O)C1CCCN(C(=O)Cc2ccc(F)cc2)CC1` (stereo not drawn) gave rRNA inh HTS 6, HNF4A DNA FP 0.3, FGF22 binding inactive, rRNA inh HTS OD600 10 and rRNA inh HTS RFP -0.1.

Only part of the results is shown; rates above refer to the full screens.
